# Assay outcomes as filed in PubChem BioAssay.
# GALR2 ag: GALR2 (human) receptor agonism; activation, %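 (tested at 5 µM)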; actives 0.48% (n = 140,000); GALR2-expressing cells, agonist activation read-out; O43603;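 active = above mean plus 3 SD of all compounds, about 5% in these data, not always enough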;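 also: 0% = vehicle buffer wells and 100% = reference agonist at full effect; tested in CHO reporter cells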
# PKD1 kinase inh: PKD1 (human) kinase inhibition; Q15139; PKD1 kinase fluorescence polarization assay; inhibition, %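 (about 10 µM by stock and volumes)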; actives 0.056% (n = 200,000); AID 797;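 active = inhibition of 50% or more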;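 also: controls were vehicle for no effect and a reference inhibitor for full effect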
# RGS16-Gao HTS: modulates binding between human RGS16 and Galphao; O15492+P09471; bead-based flow cytometry RGS16-Galphao binding, fluorescence; actives lie on both sides; binding response (% of control), % at 10 µM; actives 0.38% (n = 220,000);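 active = below 25% or above 175%, edge rows of some plates excepted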;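 also: Galphao activated by GDP with aluminum fluoride before binding; 100% = wells without compound and 0% = beads without RGS; some results beyond the cut were filed as inactive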
# Target sequence (O15492 whole entry, looked up): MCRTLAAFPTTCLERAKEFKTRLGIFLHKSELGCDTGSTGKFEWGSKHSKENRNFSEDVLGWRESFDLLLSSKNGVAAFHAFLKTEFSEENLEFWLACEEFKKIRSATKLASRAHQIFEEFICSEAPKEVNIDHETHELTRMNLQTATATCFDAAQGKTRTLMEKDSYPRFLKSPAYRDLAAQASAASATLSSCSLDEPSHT
# Target sequence (P09471 whole entry, looked up): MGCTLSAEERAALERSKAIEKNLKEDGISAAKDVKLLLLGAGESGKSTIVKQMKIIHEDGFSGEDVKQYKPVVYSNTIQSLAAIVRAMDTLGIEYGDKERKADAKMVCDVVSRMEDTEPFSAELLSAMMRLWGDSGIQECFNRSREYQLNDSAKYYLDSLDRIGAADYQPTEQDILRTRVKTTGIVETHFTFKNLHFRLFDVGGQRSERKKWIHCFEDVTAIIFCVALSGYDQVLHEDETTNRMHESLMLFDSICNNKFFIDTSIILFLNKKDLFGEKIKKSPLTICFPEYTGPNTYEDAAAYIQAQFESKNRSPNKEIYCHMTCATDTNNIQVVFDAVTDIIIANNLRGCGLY
# INS promoter inh: TRM-6 insulin promoter activity inhibition. TRM-6 cells (human fetal islet line), insulin promoter-eGFP reporter, imaging; reporter expression induced with tamoxifen. inhibition, % at 2 µM. actives 0.9% (n = 130,000);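 active = inhibition above the mean plus 3 SD, with well images judged a real hit on visual review, cut at about 60% in these data, passing the limit was not always enough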
# HSV replic up: increases HSV replication in cells; HSV replication augmentation in cells, fold increase; maximum fold increase; actives 0.005% (n = 220,000);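 active = peak rise of 1.5-fold or more in the series; tested in PC3 cells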;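 also: first round at 10 µM; read as green reporter fluorescence; hits show the peak of a series up to 25 µM; 1 = signal of infected wells without compound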
# INS promoter inh cell count: second read-out of INS promoter inh, no call of its own (marks repeat the call); normalized cell count, %; measured here: cell count, toxicity; reference of the scale not given here;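 cells exposed to compound for 48 h; stained nuclei by imaging scaled within each plate; lower means fewer cells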
# HSV replic up primary fold: further read-out of HSV replic up, marked with its call; fold increase; compound at 10 µM; measured here: primary screen fold increase 10 uM; tested in PC3 cells;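 GFP signal in the first replicate; 1 = infected wells without compound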
# * marks the source's active call; other numbers are inactive results; i = inactive; · = not tested or not shown.
compound	GALR2 ag	PKD1 kinase inh	RGS16-Gao HTS	INS promoter inh	INS promoter inh cell count	HSV replic up	HSV replic up primary fold
Cc1nn(C)c(Cl)c1S(=O)(=O)N[C@@H](c1ccccc1)[C@]1(C)C[C@H]1[C@@H](C)C(=O)Nc1ccc2ccccc2c1	-0.8	-6.3	98.8	42.9	111.6	i	0.81
CCNc1oc(COc2ccccc2F)nc1C#N	-1.1	-4.4	104.6	-23.3	101.7	i	0.797
COc1cc(SC)ccc1C(=O)Nc1ccc(C)cc1	·	-3.2	103.0	·	·	i	0.92
CCN1CCN(Cc2c(OC)ccc3ccccc23)CC1	-2.3	0.9	104.5	-12.5	119.2	i	0.88
CC1C(c2ccccc2)N(C)CCC12NC(=O)NC2=O (stereo unspecified)	-3.1	8.1	101.9	54.2	114.6	i	0.97
NC(=O)COc1ccc(Nc2nnc(-c3ccc(O)cc3)c3ccccc23)cc1	·	·	95.5	·	·	i	0.93
O=C(NCC(c1ccc(F)cc1)N1CCOCC1)c1cc(F)c(F)c(F)c1F (stereo unspecified)	·	4.0	102.1	·	·	i	0.99
CC(=O)/C(N)=N/Nc1cccc(Cl)c1	-1.6	-14.9	131.8	-21.6	69.3	i	0.98
CC1(CCc2ccccc2)NC(=O)N(CC(=O)Nc2ccc3c(c2)OCCO3)C1=O (stereo unspecified)	·	-8.5	133.5	63.6	62.9	i	0.93
O=c1c2c(nc3cc(-c4ccccc4Cl)[nH]n13)CCS2	·	-4.8	100.4	·	·	i	1.2
CCOC(=O)C(CSCC(=O)c1ccc(Br)cc1)NC(=O)OC(C)(C)C (stereo unspecified)	-2.6	1.4	105.6	-14.3	112.7	i	0.97
COCCN(CC(=O)NCC1CCCO1)C(=O)CCC(=O)Nc1cc(C)ccn1 (stereo unspecified)	-1.4	-10.8	94.7	-46.7	105.9	i	1.02
CCOc1cccc(Oc2ccc(C(F)(F)F)cn2)c1	-1.4	-5.5	100.6	-34.5	145.1	i	1.29
Cc1cc(C(F)F)n2nc(C(=O)Nc3cccc(C(F)(F)F)c3)nc2n1	-0.2	-5.7	111.4	54.3	137.3	i	0.9
COC(=O)Cc1c(O)ccn(Cc2ccc3c(c2)OCO3)c1=O	·	-4.9	100.2	-15.4	94.9	i	0.99
COc1ccc(OC(=O)NCCc2ccccc2)cc1	·	·	98.5	·	·	i	0.94
CCOc1ccccc1OCc1nn2c(-c3ccc(C)cc3)nnc2s1	-1.7	-11.0	104.4	·	·	i	0.88
CC(=O)NS(=O)(=O)c1ccccc1	-0.7	-11.5	100.1	46.1	91.8	i	0.82
CCOC(=O)N1CCN(CC(=O)Nc2ccc(Oc3ccccc3)cc2)CC1	-2.8	3.3	92.7	28.6	100.3	·	·
CNc1cc(C(F)(F)F)nc(-c2ccccn2)n1	-3.0	-15.8	105.6	29.0	115.3	i	1
C=CCN(CC(=O)Nc1c(C)cccc1CC)C(=O)SCCC	-2.6	-5.4	98.2	-41.4	75.7	i	0.93
CCOc1ccc2[nH]c(=O)c(C(c3nnnn3C3CCCCC3)N3CCN(C)CC3)cc2c1 (stereo unspecified)	0.0	2.7	86.5	-6.2	86.3	·	·
CC(=O)c1ccc(Nc2ncnc3c2oc2ccccc23)cc1	-1.5	3.0	112.0	30.3	93.3	i	0.96
CC(C(=O)N=Nc1c(O)n(C)c2ccc(Br)cc12)n1cnc2ccccc2c1=O (stereo unspecified)	·	-3.1	103.2	·	·	i	0.86
CN1CCN(Cc2c(O)ccc3c(-c4ccccc4)cc(=O)oc23)CC1	-1.7	4.2	112.5	·	·	i	1.05
CN(C(=S)NC(=O)C1(C)CC1(Cl)Cl)c1ccccc1 (stereo unspecified)	-1.4	-1.1	60.1	25.4	132.9	·	·
COC(=O)c1c(C(=O)NCc2ccccc2)ncn1CC(O)COc1ccccc1 (stereo unspecified)	-1.8	-3.0	-175.5*	6.1	98.5	i	0.87
COc1ccc(/C=C2\N=C(c3c(-c4ccccc4)noc3C)OC2=O)cc1OC	-1.1	-9.4	104.8	0.0	100.6	·	·
Cc1ccc(N/C=C(/C#N)c2ccsc2)cc1	0.0	-2.7	102.5	42.9	180.7	i	1.02
O=C(Nc1cc(Br)ccc1O)c1cnn2c(C(F)F)cc(C3CC3)nc12	·	-4.3	103.3	·	·	i	0.77

# An excerpt from above with just INS promoter inh cell count:
mol,INS promoter inh cell count
COC(=O)c1c(C(=O)NCc2ccccc2)ncn1CC(O)COc1ccccc1 (stereo unspecified),98.5
CC(=O)c1ccc(Nc2ncnc3c2oc2ccccc23)cc1,93.3

# Later entries:
compound	GALR2 ag	PKD1 kinase inh	RGS16-Gao HTS	INS promoter inh	INS promoter inh cell count	HSV replic up	HSV replic up primary fold
COc1ccc(CC(=O)Nc2nc(-c3cc(OC)ccc3OC)cs2)cc1	·	-5.1	102.0	·	·	i	0.98
Cc1ncc([N+](=O)[O-])n1Cc1cccc(F)c1	·	-0.6	98.3	-26.7	121.5	i	1
O=C(COC(=O)c1cncc(Br)c1)NCc1ccc(Cl)cc1	·	·	95.9	·	·	i	1
C[C@@H](C(=O)Nc1ccc2ccccc2c1)[C@H]1C[C@]1(C)[C@H](NC(=O)OCc1ccccc1)c1ccccc1	-3.8	6.8	31.1	-63.6	57.6	i	0.87
CCOC(=O)N1CCC(NC(=O)c2ccc3c(c2)N(Cc2ccccc2)CCS3)CC1	-2.3	2.5	105.8	·	·	i	1.11
O=C(CCS(=O)(=O)Cc1ccccc1)N1CCc2ccccc2C1	-1.1	-6.0	106.6	41.7	130.6	i	0.98
CC(=O)Nc1cc(S(=O)(=O)C(F)(F)F)ccc1Cl	-1.9	-0.4	105.9	51.4	139.3	i	0.957
O=C1CNC(=S)N1CCOc1ccccc1	·	·	99.3	·	·	i	1.13
Cc1noc(C)c1S(=O)(=O)NCc1ccc2c(c1)OCO2	·	-8.1	106.8	·	·	i	1.02
CC(C)(C)C(=O)NC(=S)N1CCc2ccccc21	·	3.0	85.8	·	·	i	0.99

# Structures shown so far that contain four or more nitrogen atoms, in the order listed:
compound	GALR2 ag	PKD1 kinase inh	RGS16-Gao HTS	INS promoter inh	INS promoter inh cell count	HSV replic up	HSV replic up primary fold
Cc1nn(C)c(Cl)c1S(=O)(=O)N[C@@H](c1ccccc1)[C@]1(C)C[C@H]1[C@@H](C)C(=O)Nc1ccc2ccccc2c1	-0.8	-6.3	98.8	42.9	111.6	i	0.81
NC(=O)COc1ccc(Nc2nnc(-c3ccc(O)cc3)c3ccccc23)cc1	·	·	95.5	·	·	i	0.93
COCCN(CC(=O)NCC1CCCO1)C(=O)CCC(=O)Nc1cc(C)ccn1 (stereo unspecified)	-1.4	-10.8	94.7	-46.7	105.9	i	1.02
Cc1cc(C(F)F)n2nc(C(=O)Nc3cccc(C(F)(F)F)c3)nc2n1	-0.2	-5.7	111.4	54.3	137.3	i	0.9
CCOc1ccccc1OCc1nn2c(-c3ccc(C)cc3)nnc2s1	-1.7	-11.0	104.4	·	·	i	0.88
CNc1cc(C(F)(F)F)nc(-c2ccccn2)n1	-3.0	-15.8	105.6	29.0	115.3	i	1
CCOc1ccc2[nH]c(=O)c(C(c3nnnn3C3CCCCC3)N3CCN(C)CC3)cc2c1 (stereo unspecified)	0.0	2.7	86.5	-6.2	86.3	·	·
CC(C(=O)N=Nc1c(O)n(C)c2ccc(Br)cc12)n1cnc2ccccc2c1=O (stereo unspecified)	·	-3.1	103.2	·	·	i	0.86
O=C(Nc1cc(Br)ccc1O)c1cnn2c(C(F)F)cc(C3CC3)nc12	·	-4.3	103.3	·	·	i	0.77
